# STK33 kinase inh: blocks human STK33 kinase activity; Q9BYT3; purified STK33, MBP phosphorylation, ADP-Glo luminescence; inhibition, % at 10 µM; 320,000 tested, 0.073% active; AID 2661;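 active means inhibition at or above 25%, using the most active replicate where run in duplicate; inactive means inhibition below 25%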
# Numbers without * were called inactive. An excerpt; most or all hits stand in other tables.
SMILES,STK33 kinase inh
CC(O)(CS(=O)(=O)c1cccc(C(F)(F)F)c1)C(=O)Nc1ccc(C(F)(F)F)cc1 (stereo not given),0.1
CC1(C)COC(Nc2ccc(Cl)cc2)=N1,-1.6
COc1ccccc1OCCCn1cc(C(C)=O)c2ccccc21,2.1
CN(C)CC1CCCCC1OC(=O)Cc1ccc(Cl)c([N+](=O)[O-])c1 (stereo not given),-1.6
CC1CCCN(C(=O)CCl)C1 (stereo not given),-0.7
COc1ccc(-n2c(-c3ccc(C)cc3)nc3ccccc3c2=O)cc1,-5.1
COc1cccc(C2(C#N)CCN(C)CC2)c1,-1.1
COc1ccc(Nc2ncc(C(=O)N3CCC4(CC3)OCCO4)c3ccccc23)cc1,0.3
CC(=O)NC1CC2CCC(C1)N2 (stereo not given),-0.7
CCOC(=O)c1c(-c2ccccc2)oc2ccc(OC(=O)N(C)C)cc12,-2.5
C=C1C(=O)O[C@@H]2C[C@@H](C)[C@@H]3C=CC(=O)[C@@]3(C)[C@@H](OC(=O)CC(=O)O[C@H]3[C@@H]4C(=C)C(=O)O[C@@H]4C[C@@H](C)[C@@H]4C=CC(=O)[C@]43C)[C@H]12,-1.0
CNC(C)(C)Cc1ccccc1,-3.4
C=CCn1c(O)c(C(C)=Nc2cccc(C(=O)O)c2)c(=O)[nH]c1=O,-0.8
c1ccc(OCC2CO2)cc1 (stereo not given),0.2
O=C(COc1ccc2ccccc2c1)N1CCN(Cc2c[nH]c3ccccc23)CC1,-0.3
O=C(Cn1nc(-c2ccc(Cl)cc2)ccc1=O)N1CCC2(CC1)OCCO2,-2.3
CN1[C@@H]2CC[C@H]1CC(OC1c3ccccc3CCc3ccccc31)C2 (stereo not given in full),0.0
Cc1ccc(-n2cc(CNC(C)Cc3cnccn3)c(-c3cccc(C)c3)n2)cc1 (stereo not given),0.6
COc1ccc(C(C)=O)cc1CN1CC=C(c2ccccc2)CC1,-1.6
O=c1cccc2n1CC1CC2CN(Cc2c(Cl)cccc2Cl)C1 (stereo not given),-0.5

# Seven consecutive compounds out of the list so far, for reference:
SMILES,STK33 kinase inh
CC(O)(CS(=O)(=O)c1cccc(C(F)(F)F)c1)C(=O)Nc1ccc(C(F)(F)F)cc1 (stereo not given),0.1
CC1(C)COC(Nc2ccc(Cl)cc2)=N1,-1.6
COc1ccccc1OCCCn1cc(C(C)=O)c2ccccc21,2.1
CN(C)CC1CCCCC1OC(=O)Cc1ccc(Cl)c([N+](=O)[O-])c1 (stereo not given),-1.6
CC1CCCN(C(=O)CCl)C1 (stereo not given),-0.7
COc1ccc(-n2c(-c3ccc(C)cc3)nc3ccccc3c2=O)cc1,-5.1
COc1cccc(C2(C#N)CCN(C)CC2)c1,-1.1

# Part of the list above in order of SMILES length, largest number first.
SMILES,STK33 kinase inh
C=CCn1c(O)c(C(C)=Nc2cccc(C(=O)O)c2)c(=O)[nH]c1=O,-0.8
O=c1cccc2n1CC1CC2CN(Cc2c(Cl)cccc2Cl)C1 (stereo not given),-0.5
CNC(C)(C)Cc1ccccc1,-3.4

# Following part
SMILES,STK33 kinase inh
Cn1cccc1CNCCc1ccccc1,0.8
C=CCC1(CN2CCCCCC2=O)C(=O)NC(=O)NC1=O,0.7
CCN1C(=O)N(CC)C(=O)C2(Cc3ccccc3N3CCN(c4ccccc4)CC32)C1=O (stereo not given),-1.6
Cc1ccccc1C1=NCC(=S)Nc2ccc(Cl)cc21,-1.5
Cc1ccc(-n2c(O)c(/C=N/N3CCCCC3c3cccnc3)c(=O)[nH]c2=S)cc1 (stereo not given),-1.1
C=CCn1c(O)c(C(CC)=Nc2cc(OC)ccc2OC)c(=O)[nH]c1=O,-1.2
NP(=O)(OCCCc1ccccc1)Oc1ccccc1 (stereo not given),0.1
COc1ccccc1N1CCN(Cc2cccc(Br)c2)CC1,-2.1
Cc1cccc(C(=O)Nc2ccc(Cl)cc2C(=O)c2ccccc2)c1,-0.2
Cc1cc(/C=C2\C(=O)NC(=O)N(c3ccc(F)cc3)C2=O)c(C)n1-c1cccc(C(=O)O)c1,-1.0

# 3 entries drawn at random from the list so far, as already listed:
SMILES,STK33 kinase inh
Cc1ccc(-n2c(O)c(/C=N/N3CCCCC3c3cccnc3)c(=O)[nH]c2=S)cc1 (stereo not given),-1.1
Cc1cccc(C(=O)Nc2ccc(Cl)cc2C(=O)c2ccccc2)c1,-0.2
COc1ccccc1N1CCN(Cc2cccc(Br)c2)CC1,-2.1

# Another view of some results above:
smiles	STK33 kinase inh
CCN1C(=O)N(CC)C(=O)C2(Cc3ccccc3N3CCN(c4ccccc4)CC32)C1=O (stereo not given)	-1.6
Cc1ccccc1C1=NCC(=S)Nc2ccc(Cl)cc21	-1.5
Cc1ccc(-n2c(O)c(/C=N/N3CCCCC3c3cccnc3)c(=O)[nH]c2=S)cc1 (stereo not given)	-1.1
C=CCn1c(O)c(C(CC)=Nc2cc(OC)ccc2OC)c(=O)[nH]c1=O	-1.2

# Further compounds
SMILES,STK33 kinase inh
CC(C)CC1C(C#N)=C(N)Oc2c1c(=O)oc1ccccc21 (stereo not given),-1.3
CC1SC2(CN3CCC2CC3)NC1=O (stereo not given),-2.5
CCCc1cc(=O)oc2cc(OCC(=O)N3CCN(Cc4ccc5c(c4)OCO5)CC3)ccc12,0.8
N#CC(C#N)=C(C#N)c1ccc(Nc2ccccc2)cc1,-0.7
O=c1cccc2n1CC1CC2CN(c2ncnc3c2cnn3-c2ccc(Cl)cc2)C1 (stereo not given),-1.2
Clc1ccc(C2N3CCCN23)c(Cl)c1 (stereo not given),-0.2
COc1ccc(-n2c(CNCCc3ccc(C)cc3)nc3ccccc3c2=O)cc1,-2.1
COC(=O)C1=C(c2cccc(OC)c2OC)C[C@@H]2CC[C@H]1N2C(=O)NCc1cccc2ccccc12,1.8
CC(=O)[C@@]1(O)CCC2C3CC=C4C[C@@H](O)CC[C@]4(C)C3CC[C@@]21C (stereo not given in full),1.2
C[C@]12CCC(=O)C=C1C=C[C@@H]1[C@@H]2CC[C@@]2(C)[C@H]1CC[C@@]2(O)CCC(=O)O,-2.1
CCOC(C(=O)OCCCN(CC)CC)(c1ccccc1)c1ccccc1,-1.0
C[C@]12CCC3C(CC[C@H]4C[C@@H](O)CC[C@]34C)C1C[C@@H](O)C2=O (stereo not given in full),0.3

# Bioassay records: PubChem BioAssay, Broad Institute
